Compound activity: PubChem, National Center for Advancing Translational Sciences (NCATS)
StopGo RLuc: Primary qHTS Assay for Foot and Mouth Disease Virus Antivirals against NCGC Sytravon and CBC Compound Libraries: Renilla Luciferase Signal. actives 0.32% (n = 120,000). AID 1745857, 2022. HEK cells with a luciferase reporter of 2A StopGo recoding. Potency, µM (series often up to 57.5 µM), without a hit: at the highest dose signal change, negative = less light; active means well fitted falling curve with a large enough effect; inconclusive means small, poorly fitted or top-dose-only effect; inactive means no such curve, though single readings can be large or run the other way; also: nearly all actives have a fitted effect of over 55% in size; overnight with compound
2A firefly: Primary qHTS Assay for Foot and Mouth Disease Virus Antivirals against NCGC Sytravon and CBC Compound Libraries: Firefly Luciferase Signal; Potency, µM (doses to about 57.5 µM), inactives show at the top dose signal change, negative = less light; HEK cells with a luciferase reporter of 2A StopGo recoding; actives 0.23% (n = 120,000); active = well fitted falling curve with a large enough effect; inconclusive = small, poorly fitted or top-dose-only effect; inactive = no such curve, though single readings can be large or run the other way; also: nearly all actives have a fitted effect of over 60% in size; overnight with compound
* = called active by the depositor; [ ] = dose if it differs, or a comment. % is scaled to controls: 0 for no effect and ±100 for the full control effect; potency is read from the fitted curve at half-maximal effect.

For COc1ccc(C(=O)N(c2ccc(C)c(Cl)c2)C2C=CS(=O)(=O)C2)cc1 (stereo not given) the results were StopGo RLuc -12.4% and 2A firefly 5.5%.
For Cc1cccc(S(=O)(=O)C(C#N)c2nc3ccccc3nc2N2CCN(c3ccccc3)CC2)c1 (stereo not given) the results were StopGo RLuc 0.2% and 2A firefly 27.8%.
For COC(=O)c1ccc(NC(=O)c2cc3cc4ccc(OC)c(Cl)c4nc3s2)cc1 the results were StopGo RLuc -0.3% and 2A firefly 86.4%[activator].
CCOc1ccc(OCC)c(NS(=O)(=O)c2cc(-c3cc(C)no3)ccc2C)c1 was read as StopGo RLuc 36.4%[activator] and 2A firefly -17.4%.
CCNC(=O)NC(=O)C(C)N(C)CC(=O)Nc1cccc2ccccc12 (stereo not given) was read as StopGo RLuc 6.1% and 2A firefly 17.2%.
COc1cccc(-c2ccnc3[nH]n(-c4ccccc4)c(=O)c23)c1 was read as StopGo RLuc -10.6% and 2A firefly 33.7%[activator].
COc1ccc(CNC(=O)Cn2c(=O)n3nc(-c4ccc(OC)cc4)nc3c3ccccc32)cc1 was read as StopGo RLuc 2.6% and 2A firefly 23.8%.
Cc1cccc(C(=O)Nc2c(-c3ccccc3)nc3cc(C)ccn23)c1 was read as StopGo RLuc 2.3% and 2A firefly 79.6%[activator].
Screening O=C(CCC(=O)N1CCCCCC1)Nc1ccc2nc(NC(=O)c3ccccc3)sc2c1 returned StopGo RLuc -3.2% and 2A firefly 115.0%[activator].
Screening CCOC(=O)CC(NC(=O)c1cc2cc(OC)ccc2oc1=O)c1ccc(OC)cc1 (stereo not given) returned StopGo RLuc -7.7% and 2A firefly -2.2%.
`CCCC(=O)Nc1ccc2oc(-c3cccnc3)nc2c1` gave StopGo RLuc 7.4% and 2A firefly 181.9%[activator].
Screening CC(C)n1ncc2cc(NC(=O)c3ccc(Cl)c(S(=O)(=O)N4CCCCC4)c3)cnc21 returned StopGo RLuc inconclusive and 2A firefly inconclusive.
For COc1ccc(CCNC(=O)C(CCS(C)(=O)=O)N2Cc3ccccc3C2=O)c(OC)c1OC (stereo not given) the results were StopGo RLuc -1.7% and 2A firefly -1.1%.
`CCc1cc2c(CSc3nnnn3-c3ccccc3)cc(=O)oc2cc1O` gave StopGo RLuc 4.4% and 2A firefly -21.9%.
For Cc1ccc(C)c(CN2CCC(CNC(=O)C(CC(C)C)N3Cc4ccccc4C3=O)CC2)c1 (stereo not given) the results were StopGo RLuc 14.6% and 2A firefly -12.8%.
Screening N#CCOc1ccc2c(=O)c(-c3ccc(Cl)cc3)c(C(F)(F)F)oc2c1 returned StopGo RLuc 42.2%[activator] and 2A firefly 131.4%[activator].
O=C(COC(=O)C1CC(=O)N(NC(=O)c2ccccc2)C1)c1ccc(Br)cc1 (stereo not given) was read as StopGo RLuc -12.3% and 2A firefly -8.0%.
Screening CCOC(=O)c1scc(-c2ccccc2)c1S(=O)(=O)Nc1ccccc1F returned StopGo RLuc 130.0%[activator] and 2A firefly 40.9%[activator].
Screening CS(=O)(=O)Nc1ccccc1C(=O)N1CCN(C(c2ccccc2)c2ccccc2)CC1 returned StopGo RLuc 29.7% and 2A firefly -9.6%.
Screening COc1cc(C(=O)Nc2ccc(C)cc2)c2ccccc2n1 returned StopGo RLuc 31.4%[activator] and 2A firefly 45.8%[activator].
Screening COC(=O)c1ccc(Cn2c(SCc3cccc(C)c3)nc3ccncc32)cc1 returned StopGo RLuc 8.9% and 2A firefly 9.9%.
Screening CC(NC(=O)c1ccccc1F)c1cc2ccccc2o1 (stereo not given) returned StopGo RLuc -7.7% and 2A firefly 5.0%.
COc1ccc(C2=C(C(C)=O)Sc3nnc(-c4ccc(Cl)cc4)n3N2C(C)=O)cc1OC was read as StopGo RLuc -11.2% and 2A firefly -23.9%.
Screening CCN(c1ccccc1)c1nnc(NC(=O)Nc2ccccc2F)s1 returned StopGo RLuc -13.8% and 2A firefly 1.9%.
`COC(=O)c1nnn(-c2ccc(Cl)cc2)c1C(=O)OC` gave StopGo RLuc -6.7% and 2A firefly 0.3%.
O=c1c2cccnc2n(Cc2ccc(Cl)cc2)c(=O)n1Cc1ccc(F)cc1 was read as StopGo RLuc 0.5% and 2A firefly 1.5%.
Screening COc1ccc(CNC(=O)c2cc3c(=O)oc4ccc(C)cc4c3s2)c(OC)c1 returned StopGo RLuc -6.9% and 2A firefly -9.2%.
`Cc1ccc(C(=O)c2cn(Cc3ccccc3C)c3nc(C)ccc3c2=O)cc1` gave StopGo RLuc -4.9% and 2A firefly -13.9%.
Screening COc1ccc(N(C(=O)c2ccc(C(C)(C)C)cc2)S(=O)(=O)c2ccc(Cl)cc2)cc1 returned StopGo RLuc -13.4% and 2A firefly -7.6%.
For O=C(COC(=O)c1ccc(-c2ccc([N+](=O)[O-])cc2)o1)Nc1ccc(Cl)cc1C(F)(F)F the results were StopGo RLuc 6.2% and 2A firefly 9.2%.
`Cc1cc(C)cc(NC(=O)c2ccc3c(c2)nnn3C2CCCC2)c1` gave StopGo RLuc -29.2% and 2A firefly 21.3%.
For O=C(/C=C/c1ccc2ccccc2c1)c1cccnc1 the results were StopGo RLuc 0.0% and 2A firefly 0.0%.
`Cc1ccc(C(=O)COC(=O)C2C3CC4C(OC(=O)C42)C3Br)cc1` (stereo not given) gave StopGo RLuc 47.2%[activator] and 2A firefly 150.6%[activator].
COc1ccc(Nc2nc(N3CCN(c4ccccc4)CC3)c3cnn(C)c3n2)cc1OC was read as StopGo RLuc -24.9% and 2A firefly -21.0%.
`COc1ccc(NC(=O)Cc2c(C)c3c(O)cc(C)cc3oc2=O)c(OC)c1` gave StopGo RLuc 27.2% and 2A firefly 4.0%.
`CN(Cc1ccco1)C(=O)c1cc(-c2ccccn2)nc2ccccc12` gave StopGo RLuc 101.3%[activator] and 2A firefly 34.8%[activator].
Screening CCOc1ccc(C(=O)NCC(c2ccc3c(c2)OCO3)N2CCOCC2)cc1 (stereo not given) returned StopGo RLuc -9.1% and 2A firefly -12.9%.
For COc1ccccc1C1N=C(Nc2nc3ccccc3o2)NC2=C1C(=O)CC(C)(C)C2 (stereo not given) the results were StopGo RLuc 24.6% and 2A firefly 16.1%.
Screening COc1cc(NC(=O)CN(C)S(=O)(=O)c2ccc3c(c2)CCCC(=O)N3)cc(OC)c1OC returned StopGo RLuc 4.9% and 2A firefly 19.4%.
CC(C)C(NS(=O)(=O)c1ccc2c(c1)oc(=O)n2C)C(=O)NCc1ccccc1 (stereo not given) was read as StopGo RLuc 15.2% and 2A firefly -12.7%.

11 consecutive compounds already listed, for reference:
For O=C(COC(=O)c1ccc(-c2ccc([N+](=O)[O-])cc2)o1)Nc1ccc(Cl)cc1C(F)(F)F the results were StopGo RLuc 6.2% and 2A firefly 9.2%.
`Cc1cc(C)cc(NC(=O)c2ccc3c(c2)nnn3C2CCCC2)c1` gave StopGo RLuc -29.2% and 2A firefly 21.3%.
For O=C(/C=C/c1ccc2ccccc2c1)c1cccnc1 the results were StopGo RLuc 0.0% and 2A firefly 0.0%.
`Cc1ccc(C(=O)COC(=O)C2C3CC4C(OC(=O)C42)C3Br)cc1` (stereo not given) gave StopGo RLuc 47.2%[activator] and 2A firefly 150.6%[activator].
COc1ccc(Nc2nc(N3CCN(c4ccccc4)CC3)c3cnn(C)c3n2)cc1OC was read as StopGo RLuc -24.9% and 2A firefly -21.0%.
`COc1ccc(NC(=O)Cc2c(C)c3c(O)cc(C)cc3oc2=O)c(OC)c1` gave StopGo RLuc 27.2% and 2A firefly 4.0%.
`CN(Cc1ccco1)C(=O)c1cc(-c2ccccn2)nc2ccccc12` gave StopGo RLuc 101.3%[activator] and 2A firefly 34.8%[activator].
Screening CCOc1ccc(C(=O)NCC(c2ccc3c(c2)OCO3)N2CCOCC2)cc1 (stereo not given) returned StopGo RLuc -9.1% and 2A firefly -12.9%.
For COc1ccccc1C1N=C(Nc2nc3ccccc3o2)NC2=C1C(=O)CC(C)(C)C2 (stereo not given) the results were StopGo RLuc 24.6% and 2A firefly 16.1%.
Screening COc1cc(NC(=O)CN(C)S(=O)(=O)c2ccc3c(c2)CCCC(=O)N3)cc(OC)c1OC returned StopGo RLuc 4.9% and 2A firefly 19.4%.
CC(C)C(NS(=O)(=O)c1ccc2c(c1)oc(=O)n2C)C(=O)NCc1ccccc1 (stereo not given) was read as StopGo RLuc 15.2% and 2A firefly -12.7%.

Going on with the list.
Screening CC(C(=O)N1CCNC1=O)N1CCC(c2nc3ccccc3o2)CC1 (stereo not given) returned StopGo RLuc -1.2% and 2A firefly 22.2%.
For Cc1ccc2c(=O)cc(CSc3nnc(-c4ccccc4)n3C)[nH]c2c1C the results were StopGo RLuc -8.8% and 2A firefly -6.5%.
For CCCn1c(N2CCN(Cc3ccc(Cl)c(Cl)c3)CC2)nc2c1c(=O)[nH]c(=O)n2C the results were StopGo RLuc inconclusive and 2A firefly inconclusive.
For CCOc1ccccc1NC(=O)C1CCCN1S(=O)(=O)c1ccc2c(c1)C(C)(C)C(=O)N2C (stereo not given) the results were StopGo RLuc 4.5% and 2A firefly -22.7%.
Cc1ccc(NC(=O)c2cnn3c(C(F)F)cc(-c4ccccc4)nc23)c(C)c1 was read as StopGo RLuc 8.9% and 2A firefly 19.9%.
Screening O=C(/C=C/c1ccc2ccccc2c1)c1cc2ccccc2o1 returned StopGo RLuc 8.3% and 2A firefly 3.5%.
`CSc1nc2sc3c(c2c(=O)n1-c1ccccc1)CCC(C(C)(C)C)C3` (stereo not given) gave StopGo RLuc -11.9% and 2A firefly -10.1%.
For CCOC(=O)c1c(S(=O)(=O)NCC(=O)Nc2cc(C)ccc2C)c(C)n(C)c1C the results were StopGo RLuc 49.7%[activator] and 2A firefly -13.3%.
Clc1ccc(N=Cc2c(Cl)cccc2Cl)cc1Cl was read as StopGo RLuc 3.2% and 2A firefly 14.9%.
`Cc1cc(C)c2oc(C(=O)N(Cc3ccc(F)cc3)c3ccccn3)cc(=O)c2c1` gave StopGo RLuc 23.0% and 2A firefly -0.4%.
COc1cc(OC)cc(C(=O)Nc2ccc(S(=O)(=O)Nc3onc(C)c3C)cc2)c1 was read as StopGo RLuc inconclusive and 2A firefly -0.6%.
Screening COc1ccc(-n2c(=O)c3sc4ccccc4c3n(C)c2=O)cc1 returned StopGo RLuc -3.8% and 2A firefly -6.3%.
For CCOC(=O)C1CCCN(C(=O)C2CCN(S(=O)(=O)c3c(C)noc3/C=C/c3ccc(C)cc3)CC2)C1 (stereo not given) the results were StopGo RLuc -5.4% and 2A firefly -4.9%.
For CC(CCc1ccccc1)NC(=O)N1CCN(S(=O)(=O)c2ccc(F)cc2)CC1 (stereo not given) the results were StopGo RLuc -15.2% and 2A firefly -9.2%.
For O=C(Nc1ccc2[nH]ncc2c1)c1nn(-c2ccccc2)c(=O)c2ccccc12 the results were StopGo RLuc 9.9% and 2A firefly 11.7%.
`CC1(C)Cc2c(sc3c2c2nc(Cc4ccccc4)nn2c(=O)n3CC(=O)N2CCCCC2)CO1` gave StopGo RLuc -2.8% and 2A firefly 5.2%.
For CCN(CC)C(CNC(=O)Nc1cccc(C(=O)N2CCOCC2)c1)c1ccsc1 (stereo not given) the results were StopGo RLuc -16.8% and 2A firefly -6.6%.
Cc1ccc(OCCOc2ccc(Br)cc2/C=C(/C#N)c2ccccc2)cc1 was read as StopGo RLuc 7.5% and 2A firefly 5.1%.
For Cn1c(=O)cc(SCC(=O)N2CCN(c3ccccc3)CC2)c2ccccc21 the results were StopGo RLuc 50.1%[activator] and 2A firefly 9.1%.
Screening O=C(O)c1cccnc1SC(F)F returned StopGo RLuc 3.7% and 2A firefly -8.9%.
CCN(Cc1ccc(C)cc1)Cc1cc(=O)oc2ccc(OC)cc12 was read as StopGo RLuc inconclusive and 2A firefly inconclusive.
CC(C)c1ccc(Nc2c(-c3ccsc3)nc3ccc(Cl)cn23)cc1 was read as StopGo RLuc -12.1% and 2A firefly 7.1%.
For Cc1ccc(C)c(S(=O)(=O)N2CCN(C(=O)Cc3sc(C)nc3-c3ccc(F)cc3)CC2)c1 the results were StopGo RLuc 10.8% and 2A firefly -9.4%.
Cc1cc(C)nc(-n2nc(C)c3c2N(Cc2ccccc2)C(=O)CC3c2ccc(Cl)cc2)n1 (stereo not given) was read as StopGo RLuc -6.0% and 2A firefly -14.9%.
For Cn1nc(C(=O)Nc2ccc(Br)cc2F)c2ccccc2c1=O the results were StopGo RLuc inconclusive and 2A firefly 43.2%.
Screening CC(NC(=O)c1nn(-c2ccccc2)c(=O)c2ccccc12)C1CC1 (stereo not given) returned StopGo RLuc -2.8% and 2A firefly -11.8%.
Cc1oc(-c2cccs2)nc1CC(=O)NCC1CCCO1 (stereo not given) was read as StopGo RLuc -9.6% and 2A firefly 6.7%.
Screening COC(=O)CC(NC(=O)c1cccc(CS(C)(=O)=O)c1)c1ccc(F)cc1 (stereo not given) returned StopGo RLuc -2.8% and 2A firefly -6.2%.
`O=C(O)/C=C(/CC(=O)O)C(=O)O` gave StopGo RLuc 5.4% and 2A firefly 0.0%.
For COc1cccc(C(=O)N2CCN(C(=O)c3cn(C)c4ccccc34)CC2)c1 the results were StopGo RLuc -7.5% and 2A firefly -5.6%.
`Cc1ccccc1NC(=O)C(C#N)=C1CCC(C(C)(C)C)CC1` (stereo not given) gave StopGo RLuc 31.9%[activator] and 2A firefly 0.0%.
Cc1ccc(Cl)cc1N1CCN(S(=O)(=O)c2ccc3[nH]c4c(c3c2)CCCCC4)CC1 was read as StopGo RLuc 7.4% and 2A firefly 1.4%.
Screening CCS(=O)(=O)c1ncc(N(Cc2ccco2)Cc2sccc2C)c(C(=O)Nc2ccc(C)cc2C)n1 returned StopGo RLuc 0.8% and 2A firefly 3.4%.

A portion of the library (hit frequency here may not be typical).
